Source: PubChem BioAssay
Biofilm kill mix = mixture kills Candida albicans biofilm cells. inhibition, % at 7.6 µM. C. albicans biofilm persisters + clotrimazole, fluorescence viability; primary screen in compound mixtures of four per well. AID 1242. actives 0.02% (n = 120,000);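 active means inhibition above 30.3% in the primary screen of four-compound pools, then above 30% when the compound was retested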;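 further: compounds exposed to preformed 24 h biofilms for 48 h; the number belongs to the whole pool; some results filed as inactive read as strong as hits; inactives centre near 12; 0% = biofilm with clotrimazole alone and 100% = kill control; retested singly at about 60 µM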
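Incubation: 24 h biofilm formation, then 48 h compound exposure, 37 °C | Material: C. albicans biofilms | Buffer or medium: RPMI/MOPS medium, pH 7.0 | Measured by: 2-h Alamar Blue fluorescence, 535/590 nm excitation/emission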
Numbers without * were called inactive. An excerpt; rates above refer to the full screens.

SMILES	Biofilm kill mix
Cc1cccc(N(Cc2cc3cc(C)ccc3[nH]c2=O)C(=O)c2cccs2)c1	26
COc1ccccc1N1CCN(C(CNS(=O)(=O)c2cc(F)ccc2F)c2cccnc2)CC1 (configuration not stated)	12
O=C(NNC1CC(=O)N(c2ccc(Cl)cc2)C1=O)c1ccco1 (configuration not stated)	4
C=CCSc1nnc2c(n1)OC(c1ccco1)Nc1ccccc1-2 (configuration not stated)	8
O=[N+]([O-])c1ccc2c(c1)C(N1CCOCC1)/C(=C/C1(O)CCCCC1)O2 (configuration not stated)	13
C=CCOc1ccc(C(=O)Nc2ccc(OCC)cc2)cc1	11
COC1(NS(=O)(=O)c2ccc(Br)cc2)C(C)=CC(=O)C=C1C	17
CCC(C)NS(=O)(=O)c1ccc(OCC(=O)Nc2ccc(F)cc2F)cc1 (configuration not stated)	10
CCOC(=O)c1cc(NC(=O)Nc2cc(C)ccn2)c(C)nc1C	23
COC(CNC(=O)C1CCCN1C(=O)OCc1ccccc1)OC (configuration not stated)	8
CC(C)(C)C(=O)NNC(=O)c1cnccn1	7
O=C(CN1C(=O)c2ccccc2C1=O)Nc1ccccc1N1CCOCC1	10
O=C(CNS(=O)(=O)c1cccs1)NCc1ccc(F)cc1	7
COc1ccccc1-c1nc(SCc2ccccn2)n[nH]1	10
COc1ccc(/C=N/N=C2/NC(=O)C(CC(=O)O)S2)cc1OCc1ccc(Cl)cc1 (configuration not stated)	2
Cc1ccc(Cl)cc1NC(=O)CC1NCCNC1=O (configuration not stated)	5
CCO[C@@H]1OC(C(N)=O)=C[C@H](c2cn(C(C)=O)c3ccccc23)[C@H]1CCCO	13
COc1cccc(C(C(=O)NC2CCCC2)N(Cc2ccco2)C(=O)c2ccco2)c1OC (configuration not stated)	16
Cc1ccc(-n2c(C)nnc2SCC(=O)Nc2ccccc2)cc1	6
O=C(Cc1ccccc1)NC(=S)Nc1ccc(N2CCCCC2)cc1	5
O=C(CCCC(=O)OCC(=O)c1cccs1)Nc1ccc(F)cc1	19
O=C(O)CCC(=O)N1CCC(n2nnc3cc(C(F)(F)F)ccc32)CC1	13
CCc1c(C)nc(SCC(=O)N2C(C)CCCC2C)[nH]c1=O (configuration not stated)	24
O=C(C1=C[C@@H](C2CC2)C[C@@H](OCc2ccc(CO)cc2)O1)N1CCN(Cc2ccccc2)CC1	18
CCN(CC)CCn1c(=N)n(CC(O)c2ccco2)c2ccccc21 (configuration not stated)	7
Continued:
SMILES	Biofilm kill mix
CC(=O)COc1ccc2c(-c3ccccc3)cc(=O)oc2c1	17
O=C(CP(=O)(c1ccccc1)c1ccccc1)N/N=C/c1cc(Br)cc(Br)c1O	17
CC(C)C12CN3CC(C(C)C)(CN(C1)C3(C)C)C2=O	-1
CCC(CC)NC(=O)COC(=O)c1ccc(OCc2ccc(C(C)=O)cc2OC)c(OC)c1	8
O=C(C[n+]1cccc(CNC(=O)c2ccc(OC(F)F)cc2)c1)Nc1ccccc1Cl	10
CCOc1ccc(CC(=O)N2CCN=C2SC)cc1	5
Nc1ccc(C(=O)O)cc1[N+](=O)[O-]	15
C/C(=N\NC(=O)CCCCCNC(=O)c1ccccc1)c1ccccc1O	14
Cc1cc(C)cc(N=Cc2c(O)c3ccccc3oc2=O)c1	29
COc1ccc(C(=O)N2CC3(CC(c4cccc(NC(=O)COc5ccc(Cl)cc5)c4)=NO3)C[C@@H]2C(N)=O)cc1 (some centres not stated)	8
Cc1ccc(NC(=O)C2CCCO2)cc1[N+](=O)[O-] (configuration not stated)	14
NC(=O)CNC(=O)c1ccc(Cl)cc1	9
COc1ccc(NC(=O)CN(C)CC(=O)Nc2ccccc2SC)cc1	22
COc1ccc(OCC(=O)Nc2ccc(N3CCCCC3)cc2)cc1	4
Cc1sc(NC(=O)/C=C/c2ccco2)c(C(=O)OC(C)C)c1C	8
Cc1ccc(C(=O)Nc2nc(C)c(C(=O)Nc3ccc4c(c3)CCC4)s2)cc1	8
COc1cccc(NC(=O)COc2ccc(S(=O)(=O)NC(C)C)cc2)c1	4
Cc1ccccc1NC(=O)CCC(=O)N/N=C/c1cc([N+](=O)[O-])ccc1O	15
COc1cc(/C=N/N2CCN(C3c4ccccc4-c4ccccc43)CC2)cc(OC)c1O	19
COC(=O)C1C(c2ccccc2)C=CC(c2ccccc2)C1C(=O)O (configuration not stated)	23
CC(=O)OC1COC(N2CCc3ccccc32)C(OC(C)=O)C1OC(C)=O (configuration not stated)	7
CN(CCC#N)C(=O)COC(=O)c1ccccc1OCc1ccccc1Cl	-7
COC(=O)c1cccc(N2CCCC2=O)c1	15
O=c1c(Cc2c(F)cccc2Cl)c(O)ccn1C1CC1	12
CCOC(=O)c1noc(C)c1C(=O)Nc1nc(C)cc(C)n1	15
More records follow.
SMILES	Biofilm kill mix
Cc1cc(NCc2ccco2)n2ncnc2n1	14
O=C(COC(=O)Cc1c(Cl)cccc1Cl)NCC1CCCO1 (configuration not stated)	14
CC(=O)N1CCN(c2nc(N)c(C#N)c(CC#N)c2C#N)CC1	12
Cc1ccc(C2C(C#N)=C(N)OC3=C2C(=O)CC(C)(C)C3)s1 (configuration not stated)	13
COc1ccccc1CN1CCNC(=O)C1CC(=O)O (configuration not stated)	21
N#Cc1c(N(CCO)CCO)nc(N)c2c(N)nc3c(c12)CC(=O)N3CC1CCCO1 (configuration not stated)	5
O=C(CCn1ccc([N+](=O)[O-])n1)Nc1nccs1	4
Cc1cc(C(=O)CSc2nn3c(=O)c(C(C)(C)C)nnc3s2)c(C)n1C1CC1	8
COc1cccc(C2(c3cccc(OC)c3)CC2C(=O)Nc2ccccc2Cl)c1 (configuration not stated)	17
O=C(CSc1nnc(-c2ccc(C(F)(F)F)cn2)o1)Nc1ccccc1Cl	29
CCOC(=O)Cc1c(C)nc2c(-c3ccccc3)c(C)nn2c1C	8
COC(=O)c1c(NC(=O)c2ccccc2N(C)S(=O)(=O)c2ccccc2)sc2c1CCCC2	12
c1cncc(CSc2ccc(-c3ccc4c(c3)OCO4)nn2)c1	16
O=c1cnnc(SCc2ccc([N+](=O)[O-])cc2)[nH]1	11
Cc1nc2c(c(=O)c3ccccc3n2C)c(=O)n1-c1ccc(F)cc1	11
CCCCCOc1ccc(Br)cc1CSC(=N)N	18
Cc1ccc(NC2=NCC(=O)N2Cc2cccs2)cc1C	13
COc1ccc([N+](=O)[O-])cc1NC(=O)N(C)Cc1ccco1	9
CCN1C/C(=C/c2cccs2)c2nc3ccccc3c(C(=O)O)c2C1	17
CC1=CC(c2ccccc2)n2nc(N3C(=O)CCC3=O)nc2N1 (configuration not stated)	11
COCCN1Cc2cc3cc(C)ccc3nc2SC1=Nc1ccc(OC)cc1	5
CN=c1scc(-c2ccco2)n1/N=C/c1ccc(O)c(O)c1	9
O=C(Cc1cccc2ccccc12)NC(NC(=S)Nc1ccccc1Cl)C(Cl)(Cl)Cl (configuration not stated)	15
CC(C)Nc1nc(Cl)nc(N(C#N)CN2C(=O)c3ccccc3S2(=O)=O)n1	13
O=C(C[n+]1ccccc1)c1ccc(NC(=O)c2ccccc2)cc1	29

Reprinted at random: 6 entries already listed, in no set order.
SMILES	Biofilm kill mix
Cc1cc(NCc2ccco2)n2ncnc2n1	14
O=c1cnnc(SCc2ccc([N+](=O)[O-])cc2)[nH]1	11
CCCCCOc1ccc(Br)cc1CSC(=N)N	18
O=C(CCn1ccc([N+](=O)[O-])n1)Nc1nccs1	4
O=C(Cc1cccc2ccccc12)NC(NC(=S)Nc1ccccc1Cl)C(Cl)(Cl)Cl (configuration not stated)	15
COCCN1Cc2cc3cc(C)ccc3nc2SC1=Nc1ccc(OC)cc1	5

Next entries
SMILES	Biofilm kill mix
CC(=O)Nc1ccc(S(=O)(=O)Nc2nc(C)nc3sc4c(c23)CCC4)cc1	15
N/C(=N\OC(=O)COc1cc(Cl)c(Cl)cc1Cl)c1ccncc1	16
CC1(c2nnc(-c3ccccc3)o2)CC(c2cccnc2)=NO1 (configuration not stated)	13
COc1ccc2[nH]c(=O)c(CN(C(=O)c3cccnc3)c3ccccc3C)cc2c1	28
Cc1nn(Cc2ccc(F)cc2Cl)c(C)c1[N+](=O)[O-]	7
COCCCNC(=O)CNC(=S)N(Cc1cc(OC)c(OC)c(OC)c1)C1CCCC1	11
S=C(NCC1CC1)N/N=C/c1ccccc1Cl	17
CCOC(=O)c1c(C)[nH]c(C)c1C(=O)COC(=O)c1cc(OC)cc(OC)c1	-5
C/C(=N\NC(=O)COc1ccccc1)c1cccs1	17
Cc1ccc(S(=O)(=O)NC(=O)NC(C)Cc2ccccc2)cc1 (configuration not stated)	8
C/C(N)=C(/C#N)C(=O)COC(=O)c1ccccc1Oc1ccccc1	21
CCn1c(CSc2n[nH]c(N)n2)nc2cc(C(=O)O)ccc21	-6
O=C(COc1ncnc2ccccc12)Nc1cccc([N+](=O)[O-])c1	19
C=CCSC1=N/C(=C\c2ccc(C(=O)O)cc2)C(=O)S1	9
CN(C)c1ccc(/C=N\NC(=O)c2cccc3cc[nH]c23)cc1	15
CCC(=O)Nc1ccc(-c2cc3ccccc3oc2=O)cc1	1
CCCCC(=O)OCC(=O)c1ccc(OCC)cc1	4
Cc1ccc(C)n1-c1ccc(C(=O)Nc2ccccc2F)cc1	10
CCc1c(SCCC(=O)O)nc2ccccc2c1C	24
CC(C)OC(=O)Cn1nc(C(F)(F)F)c2c1CCCC2	28
C[C@@H](C(=O)NCCc1c[nH]c2ccccc12)[C@@H]1C[C@@]1(C)[C@@H](NC(=O)OCc1ccccc1)c1ccccc1	7
O=C(Nc1cccc(S(=O)(=O)N2CCCCC2)c1)Nc1ccc(Cl)cc1Cl	20
Cc1cc(C)c(NC(=S)N(CCCN2CCN(C)CC2)Cc2cccs2)c(C)c1	17
Cc1ccc(S(=O)(=O)NCC(=O)N(CC(=O)NCC2CCCO2)CC2CCCO2)cc1 (configuration not stated)	8
CSc1ncc(-c2ccc(Cl)cc2)[nH]1	14

Molecules shown so far that contain a tert-butyl group:
SMILES	Biofilm kill mix
CC(C)(C)C(=O)NNC(=O)c1cnccn1	7
Cc1cc(C(=O)CSc2nn3c(=O)c(C(C)(C)C)nnc3s2)c(C)n1C1CC1	8

Next section
SMILES	Biofilm kill mix
Cc1cccc(/C=N/N(CCO)C2=NS(=O)(=O)c3ccccc32)c1	6
CCOc1nc(NCCN2CCOCC2)nc(NC(C)C)n1	12
Cc1cc(OCC(=O)c2cccc(C(F)(F)F)c2)n2cnnc2n1	17
Nc1cc2c(cc1[N+](=O)[O-])OCCO2	4
Cc1ccc(Cn2cc(/C=N/NC(=O)Cc3nnc(NC(=O)c4ccc(C)cc4)s3)c3ccccc32)cc1	9
Cc1ccc([N+](=O)[O-])cc1S(=O)(=O)N1CCN(C)CC1	5
COc1ccc(Nc2n[nH]c(C)c2[N+](=O)[O-])cc1	8
Cc1ccc(S(=O)(=O)Nc2ccc3c(c2)c2c(n3S(=O)(=O)c3ccc(C)cc3)CCCC2=O)cc1	23
COc1ccc(OCC(=O)NNC(=O)c2cccc(O)c2)cc1	7
COc1cccc(OC)c1NC(=O)CN1CCC(NC(=O)c2cccc(F)c2)CC1	4
CS(=O)(=O)N(Cc1ccc(C(=O)NCCSc2ccccn2)cc1)c1ccccc1	12
NC(=O)[C@H]1CC2(CC(c3cccc(NC(=O)COc4ccc(Cl)cc4)c3)=NO2)CN1C(=O)c1ccccc1C(=O)c1ccccc1 (some centres not stated)	13
Cc1ccc(NC(=O)C(=O)NCCN2CCN(S(=O)(=O)c3ccccc3)CC2)cc1C	2
Cc1ccc(N(Cc2ccc(C(=O)NN=C3CCN(C)CC3)cc2)S(C)(=O)=O)cc1C	12
Cc1ccc(NS(=O)(=O)c2cc(NC(=O)c3cc4c(s3)CCCC4)ccc2C)c(C)c1	19
O=C(CSc1nc(C2CC2)nc2c1cnn2-c1ccccc1)Nc1c[nH]c(=O)[nH]c1=O	12
CCOC(=O)CC1COCCN1Cc1cn[nH]c1-c1cc(OC)c(OC)c(OC)c1 (configuration not stated)	29
O=C(CCl)N1c2ccccc2OCC1c1ccccc1 (configuration not stated)	21
COc1ccc(S(=O)(=O)N2CCc3ccccc32)cc1C(=O)OCC(=O)c1c(N)n(C)c(=O)n(C)c1=O	1
N#C/C(=C\c1ccc(N2CCOCC2)o1)C(=O)N1CCOCC1	10
Cc1ccc(C(CC(=O)O)Nc2nc(N3CCOCC3)nc(N3CCOCC3)n2)cc1 (configuration not stated)	19
Cc1cc(OC(=O)C(c2ccccc2)c2ccccc2)c([N+](=O)[O-])c(=O)[nH]1	12
CCC(=O)/C=C1\Sc2ccccc2N1CC	17
O=S(=O)(c1ccc(Cl)c(NC(=S)N/N=C/c2ccc(O)cc2)c1)N1CCOCC1	-29
O=C(NCc1nc2ccccc2[nH]1)c1ccc([N+](=O)[O-])cc1	12

Reformatted with each value named: 2 of the compounds above
Cc1cc(OCC(=O)c2cccc(C(F)(F)F)c2)n2cnnc2n1
  Biofilm kill mix: 17

NC(=O)[C@H]1CC2(CC(c3cccc(NC(=O)COc4ccc(Cl)cc4)c3)=NO2)CN1C(=O)c1ccccc1C(=O)c1ccccc1 (some centres not stated)
  Biofilm kill mix: 13

Ordered by formula weight (ascending): part of the list above.
SMILES	Biofilm kill mix
Cc1ccc([N+](=O)[O-])cc1S(=O)(=O)N1CCN(C)CC1	5
Cc1ccc(NS(=O)(=O)c2cc(NC(=O)c3cc4c(s3)CCCC4)ccc2C)c(C)c1	19
NC(=O)[C@H]1CC2(CC(c3cccc(NC(=O)COc4ccc(Cl)cc4)c3)=NO2)CN1C(=O)c1ccccc1C(=O)c1ccccc1 (some centres not stated)	13
